UCH37 DUB inh: inhibitors of human deubiquitinating enzyme UCH37. Q9Y5K5. purified proteasome/UCH37, Ub-AMC cleavage fluorescence. inhibition, % (concentration not given with the values). actives 0.33% (n = 330,000);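 active = mean of two replicates above 20%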;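 also: 0% = compound-free wells with enzyme and 100% = wells lacking proteasome; stock transfer was 100 nL into about 20 µL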
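assay system = human UCH37 enzyme supplied as purified proteasome complex | amount = proteasome at 0.15 nM in the dispensed enzyme solution | schedule = 30 min compound-proteasome preincubation then 25 min substrate reaction, room temperature | measured by = fluorescence, ex 355 nm, em 460 nm | benchmarks = no-proteasome wells (full inhibition) and compound-free wells (no inhibition)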
HNF4A DNA FP: change in binding of human HNF4 alpha to DNA | HNF4a-FITC DNA binding, fluorescence polarization, 1 h | activity change, % at 10 µM | AID 1224865 | actives 0.3% (n = 360,000); in the data active = activity change above about 30%, passing the limit was not always enough;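 also: controls were the assay level and a saturating level of protein; the project sought stronger binding though the title names inhibitors; some compounds called inactive have numbers as strong as hits; positive values seem to mean higher polarization but the record does not say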
E coli growth: E. coli growth inhibition | Escherichia coli growth, OD600, 23 h; hits give low values | OD600 absorbance (concentration not given with the values) | actives 0.21% (n = 330,000);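 active = OD600 absorbance below the run mean of sample wells minus 3.6 SD, in any replicate, cut at about 0.56 in these data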;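 also: stock transfer was 300 nL into about 60 µL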
LANA-H2A inh: blocks KSHV LANA binding to histone H2A/H2B; Q9QR71; cell-free LANA-H2A/H2B peptide, fluorescence polarization; inhibition, % (concentration not given with the values); actives 0.6% (n = 320,000); AID 2629; in the data active = inhibition mostly above about 10%, no sharp cut-off; inactive = mostly below about 6.7%;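 also: stock transfer was 7.5 nL into about 10 µL; 0% = median of vehicle wells and 100% = median of positive control wells; one replicate is shown; the record names a cut of 25% in any replicate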
ALR inh: human ALR oxidase inhibition via reduced H2O2. inhibition, % (no concentration beside the values). actives 3.8% (n = 290,000). AID 485317. purified ALR, DTT oxidation, H2O2 HRP-luminol luminescence;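 active = mean and each replicate at 75% or more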;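 also: stock transfer was 7.5 nL into about 7.5 µL; 0% = neutral wells and 100% = wells with inactivated enzyme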
Target sequence (P55789 whole entry, looked up): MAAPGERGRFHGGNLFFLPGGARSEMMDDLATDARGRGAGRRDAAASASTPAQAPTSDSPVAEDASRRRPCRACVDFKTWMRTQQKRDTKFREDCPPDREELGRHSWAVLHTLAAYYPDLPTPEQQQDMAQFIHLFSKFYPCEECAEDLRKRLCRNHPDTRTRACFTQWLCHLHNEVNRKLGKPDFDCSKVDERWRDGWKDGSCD
FGF22 binding: FGF22 (human) thermal shift binding; Q9HCT0; recombinant FGF22 thermal shift, SYPRO orange fluorescence; percent of sucrose octasulfate shift, DMSO zero; calls only at 9.99 µM; actives 1.5% (n = 340,000);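 active = melting point raised past a set limit in the mean and every replicate; three in four hits are not shown here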
Target sequence (Q9HCT0 whole entry, looked up): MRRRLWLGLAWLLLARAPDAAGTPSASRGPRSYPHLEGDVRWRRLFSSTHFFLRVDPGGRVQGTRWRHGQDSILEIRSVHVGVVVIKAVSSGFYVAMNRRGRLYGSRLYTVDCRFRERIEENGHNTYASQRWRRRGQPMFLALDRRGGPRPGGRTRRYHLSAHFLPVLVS
B2AR ag: agonists of human beta-2 adrenergic receptor inducing internalization. P07550. Am2.2-beta2AR cells, FAP receptor internalization, flow cytometry; reference of the scale not given here. response, % (concentration not given with the values). actives 0.43% (n = 340,000). AID 504454;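 active = response above a set limit, near 3 SD of response in nonfluorescent compounds, cut at about 42% in these data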;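 also: stock transfer was 100 nL into about 11 µL; a reference agonist was the positive control; negative values mostly stem from fluorescent compounds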
Target sequence (P07550 whole entry, looked up): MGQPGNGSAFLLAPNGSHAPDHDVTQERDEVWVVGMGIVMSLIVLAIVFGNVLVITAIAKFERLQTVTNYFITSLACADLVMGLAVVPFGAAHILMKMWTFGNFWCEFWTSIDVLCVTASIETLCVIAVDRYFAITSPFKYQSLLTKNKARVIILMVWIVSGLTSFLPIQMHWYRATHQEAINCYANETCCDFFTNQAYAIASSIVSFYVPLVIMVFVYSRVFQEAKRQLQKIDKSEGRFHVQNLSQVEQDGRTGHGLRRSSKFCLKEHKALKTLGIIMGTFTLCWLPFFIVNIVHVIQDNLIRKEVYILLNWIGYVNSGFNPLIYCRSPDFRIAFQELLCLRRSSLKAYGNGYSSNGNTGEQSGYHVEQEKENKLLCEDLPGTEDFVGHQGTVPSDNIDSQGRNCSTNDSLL
Active calls of the source: *; i = inactive; . = no result given. A portion of the library; rates above refer to the full screens.

Below each compound – LANA-H2A inh, FGF22 binding, B2AR ag, HNF4A DNA FP, ALR inh, UCH37 DUB inh, E coli growth
- CC1(C)CC(=O)C2=C(C1)N=C1SCCC(=O)N1C2c1ccc(C(F)(F)F)cc1 (centres undefined)
    5.3, ., 0, 1.5, -7, 0.9, 0.73
- N#Cc1nc(-c2ccccc2)oc1N1CCC(C(N)=O)CC1
    0.9, i, 2, 0.5, -13, i, 0.62
- CCOc1ccc(NC(=O)CN(C)C(=O)CC2OC(=O)c3ccccc32)cc1OCC (centres undefined)
    -2.3, ., -4, -0.6, ., 1.6, 0.64
- O=C(Nc1ccc(S(=O)(=O)NC2=NCCCCC2)cc1)c1ccc(Cl)cc1Cl
    ., i, -3, 2.4, ., 6.1, 0.64
- CN(C(=O)COC(=O)c1ccc(=O)n(Cc2ccccc2)n1)C1CCCCC1
    -1.8, i, -2, 1.8, -3, 3.0, 0.72
- Cc1ccc(S(=O)(=O)N2CCOCC2)cc1C(=O)OCC(=O)NC1CCCCC1
    ., i, 0, -6.6, ., 2.7, 0.59
- CO/N=C/c1ccc(N2CCN(C(=O)c3cccc(Cl)c3)CC2)c([N+](=O)[O-])c1
    -0.5, ., 10, -1.6, -23, ., .
- Cc1ccc(-n2nnnc2-c2cnoc2-c2cccc(F)c2)cc1
    -0.8, ., 26, 1.4, -11, 0.2, 0.67
- Cc1ccc(S(=O)(=O)NCCS(=O)(=O)N2CCN(c3ccc(F)cc3)CC2)cc1
    -0.3, i, 1, -0.6, -7, 2.5, 0.63
- c1ccc2cc(Sc3ncnc4c3oc3ccccc34)ccc2c1
    -7.2, ., 13, -2.4, -7, 1.7, 0.74

Below each compound – LANA-H2A inh, FGF22 binding, B2AR ag, HNF4A DNA FP, ALR inh, UCH37 DUB inh, E coli growth
- COC(=O)c1c(-c2ccc(OC)cc2)sc2cc3c(cc12)OCO3
    -2.9, i, -6, 4.2, -6, -46, .
- Cc1ccc(Sc2ncccc2N)cc1
    37*, i, -2, 0.1, -23, -2.1, 0.68
- Cc1ccc2c(c1)C(=O)C(=O)N2CCCOc1ccccc1C
    4.0, i, 42*, 2.2, 4, 0.7, 0.71
- CCC(=O)Oc1ccc(C(=O)Nc2cccc(C(=O)NC(C)(C)C)c2)cc1
    -2.5, ., -9, 1.6, ., -0.9, 0.67
- CCCN(CC1CC1)C(=O)COc1ccccc1C(=O)NCc1ccccc1
    -3.0, ., -7, 2.0, 2, 1.1, 0.71
- CN1/C(=C\C(=S)Nc2ccccc2)C(C)(C)c2ccccc21
    -3.7, i, -2, 5.5, 29, 7.0, 0.68
- COc1cc(OC)c2ccc(=O)oc2c1C(CCN1CCN(c2ccccc2)CC1)c1ccc(N(C)C)cc1 (centres undefined)
    -2.4, i, 5, -3.1, 9, -47, 0.66
- NC(=O)N/N=C/c1ccc(OCc2cccc(Cl)c2)cc1
    -1.3, i, -1, -1.4, 5, ., .
- Cc1nn(C(C)C(=O)Nc2ccc3c(c2)OCO3)c(C)c1[N+](=O)[O-] (centres undefined)
    -2.2, i, -2, -3.9, 29, 6.0, 0.69
- CCCNC(=O)c1ccccc1NS(=O)(=O)c1ccc(OC)c(OC)c1
    0.8, ., 5, -1.3, ., -4.8, 0.69

Below each compound – LANA-H2A inh, FGF22 binding, B2AR ag, HNF4A DNA FP, ALR inh, UCH37 DUB inh, E coli growth
- O=C(NCCC1CCCCN1S(=O)(=O)c1ccccc1)C(=O)NCc1ccc(F)cc1 (centres undefined)
    0.8, i, 7, -1.8, -6, 3.8, 0.65
- N#CC1=C(SCC(N)=O)NC(=O)CC1c1ccccc1Cl (centres undefined)
    -1.7, i, -5, -6.5, -10, ., .
- COc1ccc2cc(C[C@@H]3CC[C@@H](CO)O3)ccc2c1
    ., i, -5, -2.3, ., -1.0, 0.71
- CC[C@]1(C(=O)OC)[C@H]2C(=O)N(Cc3ccccc3)C(=O)[C@H]2[C@H]2CN=C(SC)N21
    ., i, 1, 0.1, ., 1.9, 0.68
- Cc1nc2ccccn2c1C(=O)CSc1cccc(Cl)c1
    0.4, i, -18, 1.5, 10, 2.9, 0.58
- CCCCN1CC(COCc2ccccc2)Oc2cccc(Oc3ccc(F)cc3)c2S1(=O)=O (centres undefined)
    ., i, -1, 9.4, ., ., .
- CCOc1ccc(OCC)c(S(=O)(=O)NC2CC(C)(C)NC(C)(C)C2)c1
    2.1, i, -1, -1.4, ., 2.7, 0.72
- Fc1ccc(-c2[nH]ncc2CN2CCN(c3ccc(F)cc3)CC2)cc1
    0.6, i, -4, -3.0, 64, 1.3, 0.67
- Cc1ccc2cc(NC(=O)c3ccc(C(C)(C)C)cc3)ccc2n1
    1.5, i, 22, 3.6, ., -6.3, 0.66
- O=C1c2ccccc2C(=O)c2c([N+](=O)[O-])ccc(O)c21
    0.8, i, -1, -5.7, ., ., .

Below each compound – LANA-H2A inh, FGF22 binding, B2AR ag, HNF4A DNA FP, ALR inh, UCH37 DUB inh, E coli growth
- COc1ccc(NC(=O)CS(=O)CC(=O)Nc2cccnc2)cc1 (centres undefined)
    -13, i, -4, 1.2, 1, 0.2, 0.69
- CN1CCc2c(sc(NC(=O)Cc3ccc(F)cc3)c2C(N)=O)C1
    -1.3, i, 3, 2.4, ., -11, 0.67
- Cc1ccc(N(CCC(=O)Nc2nnc(C3CC3)s2)S(=O)(=O)c2ccccc2)cc1
    -2.3, i, ., ., -6, ., .
- CC1CN(C(=O)CSc2nnc(-c3ccccc3)o2)CC(C)O1 (centres undefined)
    -3.5, i, -5, -0.3, -2, 1.6, 0.69
- CCCCN(C(=O)CCC(=O)Nc1cc(C)on1)C(C(=O)NC1CCCC1)c1ccc(OC)cc1 (centres undefined)
    -6.0, i, -6, 5.2, -3, 2.7, 0.7
- Cc1cnc(-c2nnc(N(C)C(=O)C3CCCO3)s2)cn1 (centres undefined)
    4.7, ., -5, 0.4, -1, -14, 0.71
- O=c1onc(-c2ccc(Cl)cc2Cl)n1-c1cccnc1
    -4.7, i, 6, -3.5, 2, 1.2, 0.67
- CN(C)c1ccc(NC(=O)c2cccc([N+](=O)[O-])c2)c2ccccc12
    -1.1, i, 10, 3.1, -14, 3.5, 0.67
- O=C(CSc1nnc(-c2cccnc2)o1)Nc1ccccc1F
    -5.7, i, 1, 3.2, 3, 3.1, 0.7
- Cc1nc2ccc(NC(=O)CCS(=O)(=O)c3ccc(Cl)cc3)cc2s1
    -4.4, i, -4, 3.9, ., 4.5, 0.68

Looked up by structure from above, 2 records:
Below each compound – LANA-H2A inh, FGF22 binding, B2AR ag, HNF4A DNA FP, ALR inh, UCH37 DUB inh, E coli growth
- Cc1nc2ccc(NC(=O)CCS(=O)(=O)c3ccc(Cl)cc3)cc2s1
    -4.4, i, -4, 3.9, ., 4.5, 0.68
- Cc1cnc(-c2nnc(N(C)C(=O)C3CCCO3)s2)cn1 (centres undefined)
    4.7, ., -5, 0.4, -1, -14, 0.71

The list continues:
Below each compound – LANA-H2A inh, FGF22 binding, B2AR ag, HNF4A DNA FP, ALR inh, UCH37 DUB inh, E coli growth
- CCOC(=O)C(=CNc1ccccc1Cl)C(=O)OCC
    ., i, -4, -1.2, ., 3.1, 0.62
- Cc1cccc(/C=C2\Sc3ccc(C(=O)N4CCC(C(N)=O)CC4)cc3N(C)C2=O)c1
    -2.8, i, -8, -5.0, 4, 0.6, 0.72
- O=c1c(C(c2ccc(O)cc2)c2c(O)nc3n(c2=O)CCS3)c(O)nc2n1CCS2
    4.2, ., 6, -0.4, ., 4.4, 0.69
- C/C(=N/NS(=O)(=O)c1ccc(Cl)cc1)c1ccc2c(c1)OCO2
    -5.1, i, -4, -0.7, 40, ., .
- Cc1ccc(Nc2nc3ccccc3s2)c(C)c1
    -2.5, ., 7, 1.0, -13, 5.0, 0.69
- CCOC(=O)c1sc(/N=C/N(C)C)nc1C
    -8.8, i, -8, -1.3, -3, ., .
- Cc1ccc(CCNS(=O)(=O)c2cc3c(cc2C)NC(=O)CO3)cc1
    3.0, i, 1, -0.5, ., 4.1, 0.77
- CC(C)CC(=O)NCc1ccc(F)cc1
    1.7, ., -4, 0.0, -2, 1.3, 0.7
- CC1CCN(C(=O)CCNC(=O)c2ccccc2)CC1
    -1.8, i, 17, -3.4, 0, 2.2, 0.68
- CCc1nnc(SCC(=O)NC2CCCC2)nc1CC
    -1.7, ., -2, 1.5, -9, 0.8, 0.66

Overlap with the part before: 6 entries; new compounds follow.
Below each compound – LANA-H2A inh, FGF22 binding, B2AR ag, HNF4A DNA FP, ALR inh, UCH37 DUB inh, E coli growth
- Cc1ccc(Nc2nc3ccccc3s2)c(C)c1
    -2.5, ., 7, 1.0, -13, 5.0, 0.69
- CCOC(=O)c1sc(/N=C/N(C)C)nc1C
    -8.8, i, -8, -1.3, -3, ., .
- Cc1ccc(CCNS(=O)(=O)c2cc3c(cc2C)NC(=O)CO3)cc1
    3.0, i, 1, -0.5, ., 4.1, 0.77
- CC(C)CC(=O)NCc1ccc(F)cc1
    1.7, ., -4, 0.0, -2, 1.3, 0.7
- CC1CCN(C(=O)CCNC(=O)c2ccccc2)CC1
    -1.8, i, 17, -3.4, 0, 2.2, 0.68
- CCc1nnc(SCC(=O)NC2CCCC2)nc1CC
    -1.7, ., -2, 1.5, -9, 0.8, 0.66
- O=C(NN1C(=O)NC2(CCCCC2)C1=O)c1ccc(-c2ccccc2Cl)o1
    -3.2, i, 5, -2.5, ., 0.9, 0.68
- CCCNS(=O)(=O)c1ccc(NC(=O)c2ccccn2)cc1
    0.2, ., -6, 2.4, ., -0.5, 0.72
- Cc1nc(N2CCCC2)c2ccsc2n1
    -4.5, ., -8, -2.0, -1, 11, 0.67
- CCOC(=O)c1ccccc1N/C=C/C(=O)c1cccs1
    -13, i, -3, 3.0, -13, -4.1, 0.62
- Cc1cc(C)c(S(=O)(=O)NCc2cccnc2)cc1C
    -1.0, i, -2, 1.9, -5, 4.8, 0.68
- Cn1c(NCc2cc(Br)ccc2O)nc2ccccc21
    -0.2, ., -15, 0.6, 43, 2.9, 0.64
- CCc1ccc(-c2cc(C(=O)NCc3ccccn3)c3ccccc3n2)cc1
    -3.4, ., 1, 0.4, 7, -55, 0.73
- Nc1nnc(-c2ccccc2[N+](=O)[O-])o1
    -0.2, i, 3, -0.7, -16, 3.9, 0.67
- O=C(CCCN1C(=O)CSc2ncccc21)N1CCN(Cc2ccccc2)CC1
    -5.5, i, 11, 0.5, 67, 5.0, 0.75
- CCCNC1=C(N(C(C)=O)c2cccc(F)c2)C(=O)c2ccccc2C1=O
    -0.6, i, 14, 2.6, -124, 19, 0.65

Below each compound – LANA-H2A inh, FGF22 binding, B2AR ag, HNF4A DNA FP, ALR inh, UCH37 DUB inh, E coli growth
- CC(/C=N/NC(=O)Cc1cccn1C)=C\c1ccccc1
    -2.7, ., 7, 2.8, 23, ., .
- CCOCCCN(C(=O)c1snc(C(N)=O)c1N)C(C(=O)NCCC(C)C)c1ccc(Cl)cc1 (centres undefined)
    2.7, i, -2, 2.0, -3, -39, 0.69
- O=C(NCCCN1CCCC1=O)Nc1ccc(Cl)cc1Cl
    0.6, i, 4, 2.5, -11, 2.1, 0.69
- Cc1cc(C)nc(Oc2ccc(Br)cc2)n1
    6.2, i, 4, 0.4, -6, 2.5, 0.68
- CCC(=O)Nc1ccccc1C(=O)N1CCN(Cc2ccccc2)CC1
    3.1, ., -4, 1.6, ., 1.7, 0.78
- CC1CCCCC1NC(=O)C(=O)NCC1CCCO1 (centres undefined)
    0.1, ., -8, -1.1, -28, 1.6, 0.7
